# Ecoli rRNA inh = selective bacterial rRNA inhibition in E. coli | 350,000 compounds, 1.6% hits | E. coli WT GFP vs humanized-ribosome RFP mutants, fluorescence, 24 h; stronger effect = lower value; DMSO median 0, no signal -100 | GFP signal change (wild-type ribosome), % (test concentration not listed) | AID 720706;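 active = significant combined selectivity score with lowered wild-type GFP, culture density cut under 30%, mutant RFP and density less affected; inactive = any of these conditions unmet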; also: one replicate is shown; some compounds called inactive have numbers as strong as hits
# Calb FLC = affects C. albicans growth with fluconazole. C. albicans CaCi-2 (fluconazole-resistant clinical isolate) + fluconazole, Alamar Blue growth, 48 h. growth inhibition, % (test concentration not listed). 300,000 compounds, 0.57% hits. AID 1979;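 active = most replicates above 75%; inconclusive = exactly half above 75%; inactive = most below 75%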;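 also: all wells also contain fluconazole at 8 µg/ml as a sub-toxic cotreatment; 0% = median of DMSO wells and 100% = median of geldanamycin control wells; wells of about 8 µL received 7.5 nL stock; the first replicate is given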
# ALR inh = blocks human ALR sulfhydryl oxidase activity; P55789; purified ALR, DTT oxidation, H2O2 HRP-luminol luminescence; inhibition, % (test concentration not listed); 290,000 compounds, 3.8% hits; AID 485317;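 active = mean and each replicate at 75% or more; inconclusive = only one of the two met; inactive = neither met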;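 also: stock transfer was 7.5 nL into about 7.5 µL; 0% = neutral wells and 100% = wells with inactivated enzyme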
# Beta cell apopt = beta cell apoptosis inhibition. INS-1E cytokine-induced death, ATP luminescence, 48 h; percent of positive-control rescue, neutral wells zero. protection from apoptosis, % (test concentration not listed). 300,000 compounds, 0.8% hits. AID 435005;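 active = all replicates at 75% or more, or half of them and the mean; inconclusive = half reach 75% but not the mean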;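 also: 0% = cytokine-treated negative control wells and 100% = positive control rescue; higher means more ATP so stronger rescue from cytokine killing; wells of about 40 µL received 100 nL stock; the first replicate is given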
# A1 inh = inhibitors of the anti-apoptotic protein A1, read as caspase activation. caspase activation, % (test concentration not listed). 330,000 compounds, 0.066% hits. AID 2462. MEF A1-2A-BIM cells, Caspase-Glo 3/7 luminescence, 3 h; percent of clofoctol response, vehicle zero;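 active = over half of replicate activation scores above 10%, or exactly half above 10 with the replicate mean above 10; inconclusive = replicate mean below 10 yet half the replicates above 10; inactive = over half of replicates below 10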;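 also: wells of about 30 µL received 50 nL stock; many hits fall short of the cut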
# LANA-H2A inh = blocks KSHV LANA binding to histone H2A/H2B. cell-free LANA-H2A/H2B peptide, fluorescence polarization. inhibition, % (no concentration beside the values). 320,000 compounds, 0.6% hits; in the data active = inhibition mostly above about 10%, no sharp cut-off; inactive = mostly below about 6.7%;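 also: stock transfer was 7.5 nL into about 10 µL; 0% = median of vehicle wells and 100% = median of positive control wells; one replicate is shown; the record names a cut of 25% in any replicate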
# Target sequence (Q9QR71 whole entry, looked up): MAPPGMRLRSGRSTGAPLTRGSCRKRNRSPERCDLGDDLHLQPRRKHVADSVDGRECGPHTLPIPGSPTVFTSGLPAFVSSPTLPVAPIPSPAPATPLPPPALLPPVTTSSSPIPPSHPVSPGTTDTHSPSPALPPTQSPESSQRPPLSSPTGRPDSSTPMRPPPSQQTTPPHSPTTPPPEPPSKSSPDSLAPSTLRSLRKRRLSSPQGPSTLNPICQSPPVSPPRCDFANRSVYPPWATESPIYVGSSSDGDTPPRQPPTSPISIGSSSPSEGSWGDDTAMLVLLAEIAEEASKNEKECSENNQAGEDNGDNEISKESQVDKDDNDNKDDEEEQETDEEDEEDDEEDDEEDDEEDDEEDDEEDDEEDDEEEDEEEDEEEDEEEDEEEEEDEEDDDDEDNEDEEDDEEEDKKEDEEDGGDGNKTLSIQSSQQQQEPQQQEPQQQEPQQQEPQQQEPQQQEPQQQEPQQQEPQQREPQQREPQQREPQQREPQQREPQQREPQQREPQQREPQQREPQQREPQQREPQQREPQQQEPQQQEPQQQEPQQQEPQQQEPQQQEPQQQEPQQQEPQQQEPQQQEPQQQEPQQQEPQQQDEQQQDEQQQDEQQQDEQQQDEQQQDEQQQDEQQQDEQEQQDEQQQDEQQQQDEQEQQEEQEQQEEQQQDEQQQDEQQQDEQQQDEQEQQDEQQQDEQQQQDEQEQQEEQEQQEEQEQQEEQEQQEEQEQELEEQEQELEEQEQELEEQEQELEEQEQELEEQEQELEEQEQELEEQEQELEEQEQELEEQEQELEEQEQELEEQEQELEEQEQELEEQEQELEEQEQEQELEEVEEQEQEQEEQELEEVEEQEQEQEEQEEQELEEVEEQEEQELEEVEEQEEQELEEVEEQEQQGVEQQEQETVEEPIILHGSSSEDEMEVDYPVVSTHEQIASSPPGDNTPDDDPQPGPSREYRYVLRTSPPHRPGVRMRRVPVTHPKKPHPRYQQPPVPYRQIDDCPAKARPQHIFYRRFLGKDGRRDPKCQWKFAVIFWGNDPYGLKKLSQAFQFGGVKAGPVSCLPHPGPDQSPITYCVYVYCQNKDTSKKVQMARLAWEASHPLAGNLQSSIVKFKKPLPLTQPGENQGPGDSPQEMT
# Beta2AR agonist = agonists of human beta-2 adrenergic receptor inducing internalization; AID 504454; Am2.2-beta2AR cells, FAP receptor internalization, flow cytometry; reference of the scale not given here; 340,000 compounds, 0.43% hits; P07550; response, % (concentration not given with the values);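 active = response above a set limit, near 3 SD of response in nonfluorescent compounds, cut at about 42% in these data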;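 also: stock transfer was 100 nL into about 11 µL; a reference agonist was the positive control; negative values mostly stem from fluorescent compounds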
# T cruzi inh = T. cruzi replication inhibition. inhibition, % (concentration not given with the values). T. cruzi beta-gal in NIH3T3, luminescence, 90 h. 300,000 compounds, 1.4% hits;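 active = mean inhibition across valid replicates above about 55%, limit read from the data; inconclusive = mean below that limit but half or more replicates reach it; inactive = mean below it, under half of replicates reach it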;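 also: signal also drops with host cell toxicity which is not excluded here; 0% = plate median of DMSO wells and 100% = zero luminescence signal; higher percent means less beta-gal luminescence so fewer parasites; stock transfer was 50 nL into about 50 µL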
# Ecoli rRNA inh OD600 = further read-out of Ecoli rRNA inh, marked with its call; OD600 change, %; measured here: OD600 growth;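 optical density of the mix in the first replicate; 0 = DMSO median and -100 = no signal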
# Ecoli rRNA inh RFP = recorded beside Ecoli rRNA inh, whose call it bears; RFP signal change, %; measured here: RFP humanized mutant strains;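 first replicate; 0 = DMSO median and -100 = no signal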
# The depositor's hits bear a star; ? = inconclusive; nt = not tested or not shown.
SMILES,Ecoli rRNA inh,Ecoli rRNA inh OD600,Ecoli rRNA inh RFP,Calb FLC,ALR inh,Beta cell apopt,A1 inh,LANA-H2A inh,Beta2AR agonist,T cruzi inh
S=c1[nH]nc(CN2CCCCC2)n1-c1ccc(Cl)cc1,5,-2,0.1,11,19,-8,0.9,-2.0,4,-7
C=CCNC(=O)C12CC3CC(C1)CC(C(=O)NCC=C)(C3)C2,nt,nt,nt,-15,-2,1,-0.5,1.8,4,-6
CCc1ccc(C2CC(c3cccc(OC)c3)n3nc(N)nc3N2)cc1 (centres undefined),-2,-2,-1.6,9,-6,-5,0.5,-2.4,-3,28
O=C(CN1C(=O)C2CC=CCC2C1=O)Nc1ccc(S(=O)(=O)NC2=NCCCCC2)cc1 (centres undefined),nt,nt,nt,3,-6,3,-0.1,-3.2,-3,-4
CC(=O)Oc1ccc2c(C)c(CC(C)O)c(=O)oc2c1 (centres undefined),nt,nt,nt,-1,59,nt,0.5,7.7,-1,-5
CC1CCC(NC(=O)c2cc(C3CC3)nn2-c2ccccc2)CC1 (centres undefined),-49,-73,-3.7,nt,10,1,-0.4,1.2,-2,nt
O=C(Cc1ccccc1Cl)Nc1ccc(S(=O)(=O)N2CCOCC2)cc1,0,-2,-0.5,-3,0,2,1.6,6.0,7,-5
CC[n+]1ccccc1/C=C/Nc1ccccc1,18,19,-7.7,-11,14,-1,-0.7,-4.8,-8,5
CCC(C)(C)NC(=O)C(c1ccc(OC)cc1)N(C(=O)CCC(=O)Nc1cc(C)on1)c1ccccc1OC (centres undefined),3,5,-1.5,5,nt,0,0.4,4.2,-8,12
CCOc1ccc(N(CC(=O)NC2CCCCCC2)S(=O)(=O)c2c(C)[nH]c(=O)[nH]c2=O)cc1,2,-5,-0.7,-1,3,2,0.3,5.7,5,-6
Cc1cccc(NC(=O)CSCc2c(C)noc2C)c1C,nt,nt,nt,9,0,-3,-0.4,2.3,-9,5
O=C(Nc1ccc(F)cc1)N(Cc1ccco1)Cc1cc2cc3c(cc2[nH]c1=O)OCO3,nt,nt,nt,?,nt,4,-0.2,-12,-2,16
COc1cc(CN2CCNC(=O)C2CC(=O)NC2CCCC2)cc(OC)c1 (centres undefined),14,14,1.0,1,-9,0,0.9,1.5,-3,1
CCn1nc(C)c(Br)c1Nc1ccc(Br)cc1,-26,-40,-8.0,-19,45,3,1.8,-3.5,7,1
COC(=O)c1cnc(N2CCCN(S(=O)(=O)c3ccccc3)CC2)nc1C(F)(F)F,-15,-20,2.6,-4,nt,4,-0.5,1.1,-1,7
CN(c1ccc(C(=O)O)cc1)S(=O)(=O)c1ccccc1,nt,nt,nt,2,-10,-4,0.3,1.8,7,-17
CCOC(=O)NC(=O)COC(=O)c1ccc(O)cc1,17,15,0.8,-3,4,1,0.7,-7.4,2,-6
Cc1ccc(S(=O)(=O)/N=C(\N)Nc2nc(C)c3ccc(C)cc3n2)cc1,nt,nt,nt,-2,1,2,-0.1,2.4,0,18
Cc1cccc(C(=O)NC2C(=O)NNC2c2ccc(Cl)cc2)c1 (centres undefined),-4,-7,-2.0,3,60,-6,0.5,-2.0,-1,-2
CCN(C(=O)COC(=O)Cn1cnc2c1c(=O)n(C)c(=O)n2C)C1CCS(=O)(=O)C1 (centres undefined),15,12,2.5,-3,2,1,-0.4,-4.3,-3,-12
Oc1ccc(Br)cc1-c1cc(-c2ccc(Cl)cc2)n[nH]1,nt,nt,nt,1,-1,92*,-0.4,3.7,4,-24
CCC(=O)Nc1ccc(N2CCCCC2)c(C(=O)Nc2ccccc2C)c1,nt,nt,nt,35,23,-9,0.0,-1.2,-10,-6
Cc1cc(C)c(C#N)c(SCCS(=O)(=O)c2ccc(C(C)(C)C)cc2)n1,nt,nt,nt,-3,-7,44,-0.8,-3.0,-3,14
CCCCN1CCc2c1nc1ccc(Br)cc1c2N,-9,-5,1.1,-19,40,nt,0.9,0.2,20,25
N#CCCN(CCC#N)c1nncs1,nt,nt,nt,0,3,-3,1.1,3.8,-15,-5
O=C(CCS(=O)(=O)c1ccc2c(c1)NC(=O)CS2)NCCc1ccc(Cl)cc1,2,-1,-2.5,-1,-2,-3,1.8,-1.3,10,-15
COc1ccc(-n2nc3c(c2NC(=O)C2CC(=O)N(c4ccccc4)C2)CS(=O)(=O)C3)cc1 (centres undefined),5,12,4.5,?,-8,5,-0.9,0.7,18,-2
Cc1ccc(-c2csc3nc4cc(C(=O)NC5CCC(O)CC5)ccc4c(=O)n23)cc1 (centres undefined),3,19,8.8,5,-3,-5,-0.9,-2.7,5,-4
O=C(CCCC(=O)c1ccccc1)NCCc1ccccc1,13,7,1.5,1,-1,0,-0.1,0.3,-8,-8
CCc1ccc(CN2CCC(n3nccc3NC(=O)c3ccccc3C)CC2)cc1,-1,2,-0.7,-2,-1,-13,0.6,-8.7,7,?
COc1ccc(C(=O)OC(C(=O)c2ccccc2)c2ccccc2)cc1 (centres undefined),nt,nt,nt,-60,-3,3,0.5,3.3,1,14
COc1ccc(NC(=O)CN2C(=O)C(C)Oc3ccccc32)cc1 (centres undefined),6,12,0.2,-1,-1,-6,-0.3,2.2,9,-4
O=C(CSc1nc(=O)n2ccccc2n1)Nc1cccc2ccccc12,6,9,3.1,30,nt,-9,-0.3,4.8,-4,-5
CC(C)(CC(=O)O)CC(=O)O,11,5,5.1,-11,-12,-6,0.4,3.6,-6,-2
Cc1ccc(S(=O)(=O)/N=S(\C)C(C)C)cc1 (centres undefined),nt,nt,nt,-5,nt,-9,-0.3,nt,-1,7
Cc1ccc(S(=O)(=O)n2cnc3cc([N+](=O)[O-])ccc32)cc1C,nt,nt,nt,-7,-4,-4,1.1,-32,3,-32
CCN(CC)CCN(C(=O)C1=COCCO1)c1nc2c(OC)ccc(OC)c2s1,-1,-6,1.1,-3,-2,5,0.3,-3.6,-2,19
CCC(C)(C)n1nnnc1CN1CCC(NC(=O)c2ccc(Br)cc2)CC1,nt,nt,nt,2,-21,-5,0.1,11,-1,1
O=C(C[n+]1cccc(CNC(=O)c2ccc(OC(F)F)cc2)c1)Nc1ccc(F)cc1,-19*,4.7*,2.9*,-6,nt,-13,-0.6,0.9,4,9
Cc1cc(NC(=O)c2ccccc2F)nc2c1c(=O)oc1ccccc12,6,25,3.1,-5,-21,1,0.6,0.4,1,12
O=C(O)c1ccc2c(c1)C(=O)N(C(Cc1ccccc1)C(=O)O)C2=O (centres undefined),nt,nt,nt,22,2,-6,0.1,4.4,8,-3
Nc1cc2ccncc2c2ccccc12,8,-2,0.3,nt,98*,4,-0.1,-0.3,2,9
CCOc1ccc(CCNC(=O)c2nccnc2C(=O)O)cc1OCC,3,14,2.1,2,-7,-4,0.3,-4.2,0,-1
CS(=O)(=O)N1N=C(c2ccc(Br)cc2)CC1c1cccs1 (centres undefined),nt,nt,nt,-12,-7,-11,-3.7,-3.1,-2,-2
O=C(Oc1ccc(F)cc1)c1ccc2c(=O)n3c(nc2c1)CCC3,0,2,-1.7,2,3,-8,1.8,-4.6,14,-4
O=S(=O)(NC1=NCCCCC1)c1ccccc1Cl,10,-2,-0.8,5,7,-4,-0.2,-1.5,-6,-14
Cc1ccc(N=C2NC(=O)/C(=C/c3cccn3C)S2)c(C)c1,-12,-2,-0.2,-1,6,0,0.9,-4.1,6,14
Cn1cc(C(=O)c2ccccc2)cc1-c1nc2ccccc2n1C,nt,nt,nt,-2,-5,0,-0.3,-6.6,-2,3
COc1ccccc1N(C)S(=O)(=O)c1ccc(C(=O)OCC(=O)NCC(F)(F)F)cc1,7,7,0.8,7,-5,-5,0.2,-0.4,0,-1
C=C(C)C1CC=C(C)/C(=N\NC(=O)CCC(=O)Nc2ccc(C)c(C)c2)C1 (centres undefined),17,10,9.0,-4,0,-5,0.5,0.9,-19,-3
COC(=O)c1ccc(COC(=O)c2ccc(N(C)C)cc2)cc1,nt,nt,nt,19,2,-4,-1.2,1.3,-4,-2
O=C(c1cccnc1)N1CCN(C(=O)c2cccc(Cl)c2)CC1,6,-1,-0.6,2,nt,1,-2.9,2.3,-4,-2
Cc1noc(C)c1S(=O)(=O)N1CCC(C(=O)N2CCN(C3CCCC3)CC2)CC1,nt,nt,nt,-4,-3,-6,1.5,4.7,nt,-2
CCCCNc1nc(C)c(C(C)=O)cc1C#N,12,12,0.5,-4,-17,-2,0.3,0.5,-8,1
CC(=O)c1ccc(OCC(=O)Nc2ccc3nc(C)sc3c2)cc1,5,4,0.6,15,nt,-2,-0.3,-4.4,3,8
O=C(Nc1cccc(S(=O)(=O)NCc2ccco2)c1)c1cccc(Cl)c1,-1,-1,0.1,nt,5,-3,0.7,-2.3,5,nt
COC(=O)c1nn(-c2ccccc2)c(Sc2ccc(OC)cc2)c1/C=N/O,nt,nt,nt,16,-14,-1,0.2,1.2,0,-4
Cc1ccc(SCCC(=O)Nc2ccc(Br)c(C)c2)cc1,-33,-45,-9.3,-2,-3,-6,-0.5,-15,-2,-7

# Structural class, those above with a Cl atom
SMILES,Ecoli rRNA inh,Ecoli rRNA inh OD600,Ecoli rRNA inh RFP,Calb FLC,ALR inh,Beta cell apopt,A1 inh,LANA-H2A inh,Beta2AR agonist,T cruzi inh
S=c1[nH]nc(CN2CCCCC2)n1-c1ccc(Cl)cc1,5,-2,0.1,11,19,-8,0.9,-2.0,4,-7
O=C(Cc1ccccc1Cl)Nc1ccc(S(=O)(=O)N2CCOCC2)cc1,0,-2,-0.5,-3,0,2,1.6,6.0,7,-5
Cc1cccc(C(=O)NC2C(=O)NNC2c2ccc(Cl)cc2)c1 (centres undefined),-4,-7,-2.0,3,60,-6,0.5,-2.0,-1,-2
Oc1ccc(Br)cc1-c1cc(-c2ccc(Cl)cc2)n[nH]1,nt,nt,nt,1,-1,92*,-0.4,3.7,4,-24
O=C(CCS(=O)(=O)c1ccc2c(c1)NC(=O)CS2)NCCc1ccc(Cl)cc1,2,-1,-2.5,-1,-2,-3,1.8,-1.3,10,-15
O=S(=O)(NC1=NCCCCC1)c1ccccc1Cl,10,-2,-0.8,5,7,-4,-0.2,-1.5,-6,-14
O=C(c1cccnc1)N1CCN(C(=O)c2cccc(Cl)c2)CC1,6,-1,-0.6,2,nt,1,-2.9,2.3,-4,-2
O=C(Nc1cccc(S(=O)(=O)NCc2ccco2)c1)c1cccc(Cl)c1,-1,-1,0.1,nt,5,-3,0.7,-2.3,5,nt

# Screening data (PubChem)

# Not all compounds are listed; count on the stated rates, not on these rows.
